# Hsp70 activator: switches on Hsp70 transcription. activation, % at 10 µM. HeLa Hsp70 promoter luciferase reporter, luminescence; scaled: vehicle 0, proteasome-inhibitor control 100%. hit rate 0.04% among 200,000. AID 1203;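 active means activation above the mean across all tested compounds plus 3 SD, cutoff set per campaign, cut at about 5.5% in these data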;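 further: 100% = MG132 at 30 µM as the positive control and 0% = DMSO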
# APP 5'UTR act: APP 5'UTR luciferase reporter activation | SH-SY5Y APP 5'UTR luciferase reporter, luminescence; zero percent = DMSO vehicle wells | hit rate 1% among 190,000 | activation, % at 2 µM;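 active means activation above a set limit, based on mean plus 3 SD of controls, cut at about 140% in these data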; further: values of inactives mirror those of a sister screen read the other way
# G6PDH counter: inhibits Leuconostoc G6PDH, flagging false hits in G6PDH-based assays | Purified L. mesenteroides G6PDH, diaphorase/resazurin coupled fluorescence, 45 min | inhibition, % at 5 µM | hit rate 0.12% among 200,000; in the data active means inhibition above about 50%
# Efa HMGR inh: blocks class II HMG-CoA reductase of Enterococcus faecalis; purified E. faecalis HMGR, NADPH absorbance 340 nm kinetic; inhibition, % at 10 µM; hit rate 0.41% among 190,000;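 active means inhibition above a set limit, the median over all tested compounds plus 3 SD, cut at about 9.5% in these data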;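 further: enzyme runs in reverse so mevalonate oxidation gives rising NADPH absorbance; 0% = complete reaction with DMSO and 100% = background rate lacking mevalonate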
# STAT1 act: STAT1 signaling activation; activation (% of control), % at 5.5 µM; hit rate 2.6% among 200,000; AID 932; NIH 3T3 STAT1-luciferase reporter, IFN-gamma, luminescence; 100% = IFN-gamma alone, no compound;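 active means activation above the screen-wide mean activation plus 3 SD, cut at about 130% in these data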;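 further: raw ratio to IFN-gamma control signal so 100% means no change and 0% no light; values of inactives mirror those of a sister screen read the other way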
# DTT redox prof: compounds producing H2O2 with reducing agent – biochemical, NIH compound library profiling, artefact control for MLSCN library redox annotation, primary screen; DTT-dependent redox cycling H2O2, phenol red/HRP absorbance; 100% = 100 µM peroxide control, 0% = buffer; activation, % at 10 µM; hit rate 0.03% among 200,000;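 active means activation of at least 50% relative to the plate's high and low controls in the primary single-dose screen; inactive means activation below 50%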;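 further: compound incubated with DTT at 0.8 mM final as the reducing agent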
# Active calls of the source: *; . = not tested or not shown; & = joins results of further samples. Only part of the results is shown. The share of hits here may be higher or lower than overall.
molecule | Hsp70 activator | APP 5'UTR act | G6PDH counter | Efa HMGR inh | STAT1 act | DTT redox prof
O=C(c1ccccc1)N1CCN(Cc2ccccc2)CC1 | 0.2 | -11.4 | 2.3 | 4.5 | 97.5 | 1.2
Oc1c(Cl)cc(Cl)cc1Sc1cc(Cl)cc(Cl)c1O | -0.3 | 53.1 | 11.7 | -3.1 | 98.5 | -0.6
Nc1ncnc2c1ncn2[C@H]1C[C@H](O)[C@@H](CO)O1 | -0.7 | 4.1 | 0.9 | -5.0 | 109.1 | 0.0
C=C(CC)C(=O)c1ccc(OCC(=O)O)c(Cl)c1Cl | -0.2 | 1.4 | 6.8 | -7.4 | 90.2 | 0.7
CCCCC(=O)N(c1ccc(C(=O)O)cc1)c1nc(-c2ccc(Cl)cc2)c(CC)s1 | -0.4 | 4.0 | 4.8 | -1.7 | 98.9 | -0.1
OCCOCCN1CCN(C2=Nc3ccccc3Sc3ccccc32)CC1 | -0.2 | . | 10.3 | 2.6 | . | .
CN(C)CCC(c1ccc(Cl)cc1)c1ccccn1 (stereo not given) | 0.1&-0.3 | 1.6 | 9.3&7.6 | 5.8&-4.0 | 103.1 | 0.3
CN1CCN(CCCN2c3ccccc3Sc3ccc(C(F)(F)F)cc32)CC1 | 0.0&-0.2 | 1.6 | 1.8&1.4 | -4.3&-0.5 | 89.7 | 0.6
CC(N=C(NC#N)Nc1ccncc1)C(C)(C)C (stereo not given) | -0.3 | 26.2 | 11.2 | -2.9 | 115.8 | -0.3
Cc1cc(/C=C2\Sc3ccccc3N2C)cc(C)[n+]1CC1CCCO1 (stereo not given) | 0.3 | 4.3 | -3.7 | -0.1 | 77.5 | 0.3
Cc1cccc(-c2noc(-c3ccc(F)cc3)n2)c1 | 0.3 | . | 12.4 | 0.5 | 151.9* | 1.6
O=C1CCc2ccc(OCCCCN3CCN(c4cccc(Cl)c4Cl)CC3)cc2N1 | -0.3 | . | 11.1 | 0.9 | . | .
Cc1cccc(Nc2ccccc2C(=O)O)c1C | -0.2 | -4.5 | -0.6 | -3.2 | 92.8 | 0.4
CCOC(=O)c1ccc(NC(=O)Nc2ccccn2)cc1 | 0.5 | 86.8 | 11.0 | -1.6 | 150.6* | 0.4
Cc1cccn2c(=O)c3cc(C(=O)NCCc4ccccc4)c(=N)n(CCCn4ccnc4)c3nc12 | 0.1 | -18.2 | -9.3 | -3.2 | 103.9 | -5.0
CN1CCC(OC(c2ccccc2)c2ccccc2)CC1 | -0.2 | 3.6 | 2.5 | -8.2 | 92.6 | 0.6
Cc1cn(Cc2ccccc2)c(=O)[nH]c1=O | -0.3 | 5.1 | 14.8 | -8.2 | 97.7 | 0.2
CC(C)(C)NC[C@H](O)COc1nsnc1N1CCOCC1 | 0.3 | -2.0 | 9.8 | -10.6 | 99.9 | -0.3
CN(C)CC/C=C1/c2ccccc2COc2ccccc21 | 0.2 | . | 9.0 | 1.1 | . | .
Cc1cn(C2C=CC(CO)O2)c(=O)[nH]c1=O (stereo not given) | -0.2 | -14.7 | 0.5 | 8.1 | 100.9 | 2.1
OCCCCCN=c1cc(-c2ccccc2)oc2ccc(Cl)cc12 | 0.7 | 43.3 | 1.7 | -0.1 | 115.9 | 2.3
CCn1ccc(C(=O)Oc2ccc(C(C)C)cc2)n1 | 0.0 | 0.3 | -10.4 | -1.4 | 99.5 | 15.1
CC(=O)c1cn(Cc2ccccc2)c(=O)n(Cc2ccc(F)cc2)c1=O | -0.3 | -10.4 | 8.5 | -5.2 | 91.3 | 0.0
Cc1onc(-c2c(Cl)cccc2Cl)c1C(=O)NC1C(=O)N2C1SC(C)(C)C2C(=O)O (stereo not given) | -0.4 | -20.8 | 0.0 | -1.3 | 101.3 | -0.6
c1ccc2c(c1)CCCC2C1=NCCN1 (stereo not given) | -0.4 | 11.8 | 14.8 | 0.3 | 102.8 | 2.9
NC(=O)c1ncn([C@@H]2O[C@H](CO)[C@@H](O)[C@H]2O)n1 | -0.4 | 14.3 | 9.9 | -8.4 | 112.1 | -1.2
O=[N+]([O-])c1ccccc1Nc1ccccc1 | 0.0 | -0.5 | 1.7 | 3.0 | 104.4 | 0.4
CCCCOc1ccc(-c2cn3ccccc3n2)cc1[N+](=O)[O-] | -0.1 | 133.5 | -1.2 | -2.3 | 131.5* | -0.5
O=C(NC1=NC2CCCCC2N1)c1ccccc1 (stereo not given) | 0.1 | 38.9 | 13.5 | -3.3 | 114.5 | -1.2
N/C(=N\OC(=O)c1ccccc1Cl)c1ccccn1 | -0.7 | 123.3 | 3.7 | 1.3 | 31.0 | -0.8
Nc1ccc(C(=O)O)c(O)c1 | 0.0&-0.2&-0.5 | 6.7&-4.4&5.3 | 12.3&17.6 | -2.6&1.6&-8.7 | 101.7&93.6&95.2 | -0.3&0.0&-0.2
CCn1c(C)c(P(c2ccccc2)c2ccccc2)[n+]2ccccc12 | 0.0 | -6.7 | 7.8 | 1.9 | 77.2 | 0.0
CNCC[C@H](Oc1cccc2ccccc12)c1cccs1 | -0.6 | . | 4.1 | -1.3 | . | .
CN(C)[C@@H]1C(=O)C(C(=O)NCN2CCCC2)=C(O)[C@@]2(O)C(=O)C3=C(O)c4c(O)cccc4[C@@](C)(O)C3CC12 (stereo not given in full) | -0.1 | -0.2 | 38.3 | -3.1 | 98.5 | 0.6
CC(C)C(=O)Nc1ccc([N+](=O)[O-])c(C(F)(F)F)c1 | 0.0 | 31.0 | 4.5 | -4.6 | 95.2 | 0.0
C1CCC2=NCCCN2CC1 | -0.1 | 13.2 | -13.0 | 0.5 | 94.5 | 2.2

# Ordered by molar mass (low to high): 18 of the compounds above.
molecule | Hsp70 activator | APP 5'UTR act | G6PDH counter | Efa HMGR inh | STAT1 act | DTT redox prof
C1CCC2=NCCCN2CC1 | -0.1 | 13.2 | -13.0 | 0.5 | 94.5 | 2.2
Nc1ccc(C(=O)O)c(O)c1 | 0.0&-0.2&-0.5 | 6.7&-4.4&5.3 | 12.3&17.6 | -2.6&1.6&-8.7 | 101.7&93.6&95.2 | -0.3&0.0&-0.2
c1ccc2c(c1)CCCC2C1=NCCN1 (stereo not given) | -0.4 | 11.8 | 14.8 | 0.3 | 102.8 | 2.9
O=[N+]([O-])c1ccccc1Nc1ccccc1 | 0.0 | -0.5 | 1.7 | 3.0 | 104.4 | 0.4
Cc1cn(Cc2ccccc2)c(=O)[nH]c1=O | -0.3 | 5.1 | 14.8 | -8.2 | 97.7 | 0.2
Cc1cn(C2C=CC(CO)O2)c(=O)[nH]c1=O (stereo not given) | -0.2 | -14.7 | 0.5 | 8.1 | 100.9 | 2.1
O=C(NC1=NC2CCCCC2N1)c1ccccc1 (stereo not given) | 0.1 | 38.9 | 13.5 | -3.3 | 114.5 | -1.2
NC(=O)c1ncn([C@@H]2O[C@H](CO)[C@@H](O)[C@H]2O)n1 | -0.4 | 14.3 | 9.9 | -8.4 | 112.1 | -1.2
CCn1ccc(C(=O)Oc2ccc(C(C)C)cc2)n1 | 0.0 | 0.3 | -10.4 | -1.4 | 99.5 | 15.1
CN(C)CC/C=C1/c2ccccc2COc2ccccc21 | 0.2 | . | 9.0 | 1.1 | . | .
CN1CCC(OC(c2ccccc2)c2ccccc2)CC1 | -0.2 | 3.6 | 2.5 | -8.2 | 92.6 | 0.6
CNCC[C@H](Oc1cccc2ccccc12)c1cccs1 | -0.6 | . | 4.1 | -1.3 | . | .
CCCCOc1ccc(-c2cn3ccccc3n2)cc1[N+](=O)[O-] | -0.1 | 133.5 | -1.2 | -2.3 | 131.5* | -0.5
CC(C)(C)NC[C@H](O)COc1nsnc1N1CCOCC1 | 0.3 | -2.0 | 9.8 | -10.6 | 99.9 | -0.3
OCCCCCN=c1cc(-c2ccccc2)oc2ccc(Cl)cc12 | 0.7 | 43.3 | 1.7 | -0.1 | 115.9 | 2.3
CCn1c(C)c(P(c2ccccc2)c2ccccc2)[n+]2ccccc12 | 0.0 | -6.7 | 7.8 | 1.9 | 77.2 | 0.0
CC(=O)c1cn(Cc2ccccc2)c(=O)n(Cc2ccc(F)cc2)c1=O | -0.3 | -10.4 | 8.5 | -5.2 | 91.3 | 0.0
Cc1onc(-c2c(Cl)cccc2Cl)c1C(=O)NC1C(=O)N2C1SC(C)(C)C2C(=O)O (stereo not given) | -0.4 | -20.8 | 0.0 | -1.3 | 101.3 | -0.6

# Assay outcomes (PubChem)
